Calb FLC – affects C. albicans growth with fluconazole. C. albicans CaCi-2 (fluconazole-resistant clinical isolate) + fluconazole, Alamar Blue growth, 48 h. growth inhibition, % (no concentration beside the values). 300,000 compounds, 0.57% hits;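 active means most replicates above 75%; inconclusive means exactly half above 75%; inactive means most below 75%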;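 further: all wells also contain fluconazole at 8 µg/ml as a sub-toxic cotreatment; 0% = median of DMSO wells and 100% = median of geldanamycin control wells; wells of about 8 µL received 7.5 nL stock; the first replicate is given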
UCH37 inh – inhibitors of human deubiquitinating enzyme UCH37. purified proteasome/UCH37, Ub-AMC cleavage fluorescence. AID 588478. Q9Y5K5. 330,000 compounds, 0.33% hits. inhibition, % (no concentration beside the values);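 active means mean of two replicates above 20%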;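 further: 0% = compound-free wells with enzyme and 100% = wells lacking proteasome; stock transfer was 100 nL into about 20 µL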
Target sequence (Q9Y5K5 whole entry, looked up): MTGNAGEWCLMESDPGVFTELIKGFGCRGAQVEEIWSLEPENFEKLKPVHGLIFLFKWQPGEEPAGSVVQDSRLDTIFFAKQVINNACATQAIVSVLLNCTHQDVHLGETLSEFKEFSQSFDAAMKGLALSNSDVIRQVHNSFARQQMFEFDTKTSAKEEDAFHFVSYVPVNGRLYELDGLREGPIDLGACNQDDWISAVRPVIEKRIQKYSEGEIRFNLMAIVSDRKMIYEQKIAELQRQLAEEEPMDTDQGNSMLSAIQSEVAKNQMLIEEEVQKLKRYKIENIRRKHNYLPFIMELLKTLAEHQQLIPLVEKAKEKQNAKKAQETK
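Material: Human UCH37 enzyme supplied as purified proteasome complex | Schedule: 30 min preincubation with enzyme, 25 min cleavage at room temperature | Detection: AMC fluorescence 355/460 nm | Measure: % inhibition of Ub-AMC cleavage fluorescence | Controls: Wells without proteasome as full block, compound-free enzyme plus substrate as uninhibited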
T cruzi inh – blocks replication of Trypanosoma cruzi; AID 1885; T. cruzi beta-gal in NIH3T3, luminescence, 90 h; 300,000 compounds, 1.4% hits; inhibition, % (test concentration not listed);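 active means mean inhibition across valid replicates above about 55%, limit read from the data; inconclusive means mean below that limit but half or more replicates reach it; inactive means mean below it, under half of replicates reach it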;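 further: signal also drops with host cell toxicity which is not excluded here; 0% = plate median of DMSO wells and 100% = zero luminescence signal; higher percent means less beta-gal luminescence so fewer parasites; stock transfer was 50 nL into about 50 µL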
Beta cell apopt – blocks beta cell apoptosis | INS-1E cytokine-induced death, ATP luminescence, 48 h; percent of positive-control rescue, neutral wells zero | AID 435005 | 300,000 compounds, 0.8% hits | protection from apoptosis, % (concentration not given with the values);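 active means all replicates at 75% or more, or half of them and the mean; inconclusive means half reach 75% but not the mean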;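 further: 0% = cytokine-treated negative control wells and 100% = positive control rescue; higher means more ATP so stronger rescue from cytokine killing; wells of about 40 µL received 100 nL stock; the first replicate is given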
B2AR ag – activates human beta-2 adrenergic receptor causing internalization. AID 504454. Am2.2-beta2AR cells, FAP receptor internalization, flow cytometry; reference of the scale not given here. 340,000 compounds, 0.43% hits. response, % (test concentration not listed). P07550;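 active means response above a set limit, near 3 SD of response in nonfluorescent compounds, cut at about 42% in these data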;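 further: stock transfer was 100 nL into about 11 µL; a reference agonist was the positive control; negative values mostly stem from fluorescent compounds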
Target sequence (P07550 whole entry, looked up): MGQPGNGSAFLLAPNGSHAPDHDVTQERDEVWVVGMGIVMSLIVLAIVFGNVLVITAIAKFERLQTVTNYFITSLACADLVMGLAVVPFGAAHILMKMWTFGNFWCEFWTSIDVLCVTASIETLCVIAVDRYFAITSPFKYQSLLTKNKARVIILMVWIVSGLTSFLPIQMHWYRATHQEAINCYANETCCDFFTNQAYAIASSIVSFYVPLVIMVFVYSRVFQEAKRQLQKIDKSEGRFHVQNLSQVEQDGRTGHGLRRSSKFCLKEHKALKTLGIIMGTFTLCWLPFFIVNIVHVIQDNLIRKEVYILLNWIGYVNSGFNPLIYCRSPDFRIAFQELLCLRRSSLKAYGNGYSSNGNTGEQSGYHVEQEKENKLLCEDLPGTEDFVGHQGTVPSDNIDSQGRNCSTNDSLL
RanGTP-Impb inh – disruptors of Ran-importin-beta complex formation – biochemical, FRET, CFP-Ran, YFP-importin-beta, homogeneous, primary screen; inhibition, % (test concentration not listed); AID 2216; cell-free CFP-Ran/YFP-importin-beta FRET ratio; 300,000 compounds, 1.1% hits;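 active means most replicates above 15%; inconclusive means exactly half above 15%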;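 further: 0% = DMSO wells and 100% = Ran loaded with GDP instead of GTP; wells of about 40 µL received 100 nL stock; the first replicate is given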
A1 inh – inhibitors of the anti-apoptotic protein A1, read as caspase activation; MEF A1-2A-BIM cells, Caspase-Glo 3/7 luminescence, 3 h; percent of clofoctol response, vehicle zero; caspase activation, % (test concentration not listed); 330,000 compounds, 0.066% hits; AID 2462;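 active means over half of replicate activation scores above 10%, or exactly half above 10 with the replicate mean above 10; inconclusive means replicate mean below 10 yet half the replicates above 10; inactive means over half of replicates below 10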;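 further: wells of about 30 µL received 50 nL stock; many hits fall short of the cut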
LANA-H2A inh – blocks KSHV LANA binding to histone H2A/H2B; 320,000 compounds, 0.6% hits; cell-free LANA-H2A/H2B peptide, fluorescence polarization; AID 2629; inhibition, % (no concentration beside the values); Q9QR71; in the data active means inhibition mostly above about 10%, no sharp cut-off; inactive means mostly below about 6.7%;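 further: stock transfer was 7.5 nL into about 10 µL; 0% = median of vehicle wells and 100% = median of positive control wells; one replicate is shown; the record names a cut of 25% in any replicate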
The depositor's hits bear a star; ? = inconclusive; · = not tested or not shown.

SMILES | Calb FLC | UCH37 inh | T cruzi inh | Beta cell apopt | B2AR ag | RanGTP-Impb inh | A1 inh | LANA-H2A inh
CCOc1nc(-c2ccccc2)ncc1Oc1ccccc1 | 5.9 | 3.0 | 10.3 | 5.1 | 5.2 | 1.0 | 0.6 | -5.0
COc1cccc(-n2nnc3c(=O)n(CC(=O)N4CCCCC4)cnc32)c1 | 8.1 | 2.6 | -15.0 | -1.2 | 7.1 | 1.6 | -1.7 | -1.7
COc1cc(OC)c(C(=O)Nc2ncn[nH]2)cc1OC | -4.1 | 0.1 | -3.0 | -0.8 | -8.5 | 1.6 | -0.1 | -3.3
COc1ccc(N2CC(C(=O)Nc3ccc(N4CCOCC4)cc3)CC2=O)cc1 (configuration not stated) | 9.6 | -0.5 | -8.3 | -17.5 | 7.8 | 1.5 | 1.2 | 5.1
CC1(C)CC(=O)C(C2c3ccccc3Oc3ccccc32)C(=O)C1 | 35.1 | 2.0 | -5.9 | -7.0 | -11.9 | ? | 0.0 | 6.7
Cc1ccccc1C(=O)N/C(=C/c1ccc(-c2cccnc2Cl)o1)C(=O)NCCCN1CCN(C)CC1 | -10.8 | -38.0 | -1.3 | 0.2 | -12.8 | -4.0 | -0.5 | 5.8
C#CCNC(=O)C1=C[C@@H](C2CCCCC2)[C@H](CCCO)[C@@H](OCC)O1 | -9.2 | 0.5 | 6.3 | 0.5 | -0.8 | 0.4 | 0.2 | -5.1
CC(=O)c1ccc(N2CCN(S(=O)(=O)c3ccc4c(c3)NC(=O)CO4)CC2)cc1 | 16.9 | -0.7 | -7.0 | -3.1 | 9.8 | 3.0 | 0.4 | -12.0
CCC(=O)Nc1nc(C)nc(C)c1C(C)=O | -4.5 | 2.1 | -15.3 | -8.8 | 26.3 | 1.0 | -0.9 | 2.5
CCN1CCCC(NC(=O)c2scc3c2CCCC3)C1 (configuration not stated) | 4.6 | · | -10.9 | · | -10.0 | 3.0 | 0.7 | -0.4
Cc1sc(NC(=O)C2C3CCC(C3)C2C(=O)O)c(C(N)=O)c1-c1ccc(C(C)(C)C)cc1 (configuration not stated) | -0.3 | -4.6 | 7.8 | -2.2 | 8.2 | -2.4 | 0.2 | ·
O=C(c1ccc2c(=O)n(CC3CCCO3)c(=S)[nH]c2c1)N1CCN(c2ccccc2)CC1 (configuration not stated) | 1.0 | 4.9 | 6.9 | -5.9 | 1.8 | -2.0 | 1.8 | -7.4
COc1ccc(CNC(=O)c2c(O)c3cc(OC)c(OC)cc3[nH]c2=O)cc1OC | -0.1 | -21.4 | -0.2 | · | -1.6 | -5.2 | 0.4 | 7.4
O=C(O)CCC(=O)N1N=C(c2ccccc2)CC1c1ccc2c(c1)OCO2 (configuration not stated) | -0.4 | 1.2 | -14.2 | -5.8 | 5.6 | -1.2 | 2.7 | 3.4
Cc1ccc(-c2nnc(-c3ccncc3)n2-c2ccc(C)cc2)cc1 | -24.3 | 5.4 | 18.1 | 5.1 | -5.2 | -0.7 | 0.4 | 3.7
CCC1CCCCN1CCN1C(=O)C2C(C(=O)Nc3ccc(OC)cc3)C3C=CC2(O3)C1C(=O)NC1CCCCC1 (configuration not stated) | -10.3 | 0.5 | 8.8 | -3.4 | 3.4 | -2.3 | 0.3 | 3.1
COc1cc(/C=C/C(=O)OCC(=O)Nc2cc(S(=O)(=O)N(C)C)ccc2Cl)ccc1O | 6.5 | -5.6 | 0.1 | -4.1 | -2.1 | 0.4 | 0.6 | -0.8
Cc1ccc(OCC(=O)Nc2ccncc2)c(C)c1 | -5.4 | · | -4.2 | -8.2 | 4.0 | ? | 0.3 | -1.8
COc1ccc(N/C=C/C(=O)c2ccc(Cl)cc2)cc1 | -1.9 | -4.6 | -13.7 | 2.0 | 8.0 | 0.2 | -4.4 | 32.9*
O=C(C1CCC(=O)N(C2CCCC2)C1)N1CCN(Cc2cccc(F)c2)CC1 (configuration not stated) | 4.8 | 0.7 | -1.5 | 4.4 | -2.2 | -6.2 | -0.6 | -0.8
O=C(C1CCCO1)N1CCC(c2nc3ccccc3[nH]2)CC1 (configuration not stated) | 1.8 | -2.0 | -14.9 | -0.2 | 5.2 | -3.3 | -0.6 | -1.0
NC(=O)c1ccc(NC(=O)Cc2ccc(S(=O)(=O)N3CCCCC3)cc2)cc1 | · | 4.3 | · | 0.4 | -2.0 | · | 1.9 | -1.2
Cc1cc(C(=O)N/N=C/c2cc(Br)ccc2OC(=O)c2ccccc2Cl)n[nH]1 | ? | · | 51.7 | · | 4.1 | -1.7 | 0.7 | -3.0
O=C(NCc1ccccc1)c1cccc(COc2cc(Cl)ccc2Cl)c1 | -5.2 | 4.3 | -1.5 | -7.9 | 1.1 | 1.4 | -1.4 | 0.0
O=C(N/N=C\c1c(O)ccc2ccccc12)c1ccc(S(=O)(=O)N2CCCCC2)cc1 | ? | · | 57.7* | 96.7* | -158.4 | -7.7 | 0.0 | 24.4*

Next part:
SMILES | Calb FLC | UCH37 inh | T cruzi inh | Beta cell apopt | B2AR ag | RanGTP-Impb inh | A1 inh | LANA-H2A inh
CSCC[C@H](NC(=O)c1cc2c([nH]c3ccccc32)c(-c2ccccc2)n1)C(=O)O | -9.1 | -189.3 | -16.4 | · | 9.6 | -0.8 | 0.8 | 1.1
CCN(CC)C(=O)Cn1cc(C(=O)C(=O)N2CCN(Cc3ccc4c(c3)OCO4)CC2)c2ccccc21 | -1.4 | 2.3 | 0.5 | -10.2 | 1.7 | -5.4 | 0.3 | -3.3
Cc1cc2n(n1)C(c1sccc1C)Nc1c(C)cccc1-2 (configuration not stated) | -3.0 | -22.5 | -3.1 | 0.9 | 21.9 | 1.5 | 0.0 | 1.6
O=C1/C(=C\c2cccnc2)CCc2ccccc21 | 1.1 | 5.0 | 7.1 | -4.8 | -4.1 | 1.6 | -1.6 | 1.0
Cc1ccc2nc(-c3ccccn3)cc(C(=O)Nc3ccc(S(=O)(=O)N4CCOCC4)cc3)c2c1 | 5.3 | 1.6 | 9.6 | 18.0 | 9.2 | 0.2 | 0.5 | -0.3
CC(C)NC(=O)c1ccc(C2SCC(=O)N2Cc2ccccc2)cc1 (configuration not stated) | -9.6 | 0.6 | 9.4 | 7.0 | -11.9 | 6.5 | 1.6 | -0.6
CCN(CC)C(=O)Cn1cnc2sc(C(=O)N3CCN(Cc4ccc5c(c4)OCO5)CC3)c(C)c2c1=O | -19.5 | 5.2 | -11.6 | -3.2 | 1.6 | 1.4 | 0.6 | -5.1
N#C/C(=C\c1ccccc1Br)C(=O)NC1CC1 | -3.0 | 1.3 | 2.4 | -1.6 | 13.7 | 2.6 | 1.3 | -0.6
O=C(Nc1ccc(OCc2ccccc2)cc1)Nc1ccccc1C(=O)NCCCN1CCOCC1 | -11.9 | 6.2 | 5.1 | 5.1 | -10.3 | -0.4 | -7.5 | 4.1
Cc1c(C(=O)N(C)CCCCN2CCOCC2)oc2c(F)cccc12 | -16.3 | -0.5 | -0.7 | -8.5 | -1.3 | ? | -0.5 | 3.9
O=C1NC(Cc2ccccc2)C(=O)N1CC(=O)N1CCCc2ccccc21 (configuration not stated) | -6.2 | 0.7 | 6.7 | -1.7 | 11.3 | 5.3 | -0.5 | -6.1
Cc1ccc(C(C)C)c(OCC(=O)OCC(=O)NC2CCS(=O)(=O)C2)c1 (configuration not stated) | -1.9 | 1.7 | -4.9 | -14.3 | -1.3 | -0.4 | 1.9 | -10.6
O=C(O)CCn1cc(/C=C\C(=O)c2ccc(Cl)cc2)c(-c2cccc(Br)c2)n1 | 3.9 | 2.4 | -5.2 | -12.0 | 5.9 | -3.3 | -0.2 | -4.6
C/C(=N/NC(=O)c1ccncc1)c1c[nH]c2ccccc12 | 2.8 | · | -18.6 | -2.4 | -12.7 | ? | -0.4 | -1.8
CCN(C(=S)Nc1ccc(Oc2ccccc2)cc1)c1ccccc1 | -15.2 | -0.6 | 5.0 | · | -4.0 | -2.2 | 0.9 | 1.0
CN(c1cccc(NC(=O)CN(c2cccc(Cl)c2)S(=O)(=O)c2ccccc2)c1)S(C)(=O)=O | 4.1 | 1.1 | 4.0 | 4.1 | 6.7 | 1.4 | -0.6 | 4.3
CCN(CC)CC(=O)NC12CC3CC(CC(C3)C1)C2 | 7.8 | 6.2 | · | -1.3 | 0.7 | 3.9 | 0.4 | -3.2
Cc1ccccc1Cn1c(=N)n(CC(=O)c2ccc([N+](=O)[O-])cc2)c2ccccc21 | · | 4.1 | · | 14.7 | 54.8* | · | 0.8 | -1.2
COc1cc(N2CCCC2)ccc1[N+](=O)[O-] | -13.2 | 14.8 | -3.9 | · | -11.2 | 0.4 | 0.5 | -0.6
COc1ccc(C(=O)Nc2nccs2)cc1[N+](=O)[O-] | -19.8 | 4.1 | -4.9 | -12.2 | -1.0 | ? | -0.1 | 4.2
O=C(Cn1nnc2ccccc2c1=O)Nc1ccc2c(c1)CCC2 | -9.0 | 0.8 | -4.2 | -5.1 | 5.8 | 2.9 | -0.3 | 3.6
COc1cc(/C=C/C(=O)OCC(=O)Nc2ccc(S(=O)(=O)N3CCCC3)cc2)ccc1O | 0.9 | -5.4 | -3.3 | -0.4 | 2.9 | -2.3 | 0.5 | -1.9
CN(C)C(CNC(=O)c1ccc(NC(=O)CC#N)cc1)c1ccccc1 (configuration not stated) | 3.4 | -3.5 | -19.5 | -1.0 | 47.5* | 4.1 | 0.6 | -1.5
COc1cccc(C(=O)NNC(=O)c2ccccc2)c1 | 3.2 | 4.3 | 3.3 | -3.5 | 4.4 | 0.5 | -1.5 | 4.2
O=S(=O)(Nc1ccc(-n2cccc2)cc1)c1ccccc1 | -3.4 | 6.8 | -0.9 | 4.1 | -3.7 | -2.0 | -0.1 | -1.7
Cc1c(C(=O)C(=O)N2c3ccc(F)cc3CCC2C)c2ccccc2n1C (configuration not stated) | -7.2 | 4.2 | 39.8 | -4.6 | 4.1 | 2.0 | 1.3 | -0.5
COc1ccc(/C=C/C(=O)Oc2ccc(C)c(C)c2)cc1OC | -1.2 | -0.8 | -4.2 | -6.4 | 10.4 | -1.6 | -0.9 | -1.5
COc1ccc(C(=O)NC(CCSC)C(=O)NC2CC2)cc1 (configuration not stated) | · | 3.3 | · | -0.9 | -2.1 | · | 1.2 | 5.0
N#CCCCn1c(=O)oc2ccccc21 | -4.3 | 0.7 | -10.5 | -0.1 | -3.5 | 4.5 | -1.0 | 11.8

An excerpt of these results, comma-delimited.
SMILES,Calb FLC,UCH37 inh,T cruzi inh,Beta cell apopt,B2AR ag,RanGTP-Impb inh,A1 inh,LANA-H2A inh
O=C(Nc1ccc(OCc2ccccc2)cc1)Nc1ccccc1C(=O)NCCCN1CCOCC1,-11.9,6.2,5.1,5.1,-10.3,-0.4,-7.5,4.1
Cc1c(C(=O)N(C)CCCCN2CCOCC2)oc2c(F)cccc12,-16.3,-0.5,-0.7,-8.5,-1.3,?,-0.5,3.9

Compound activity from PubChem BioAssay.

Not a hit list, and some 4.3% of all compounds hit somewhere here.
